Screening results: PubChem, several laboratories
Sa RN4220 lethal = growth inhibition of S. aureus RN4220, primary screen, OD600 | hit rate 0.33% among 330,000 | inhibition, % (no concentration beside the values) | 16 h;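 active = z-score of -3 or lower and OD600 up to 0.18 on both plates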;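 also: plate controls were untreated cells for no effect and reference antibiotic for full effect; stock transfer was 100 nL into about 80 µL; one replicate is shown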
Mtb hypoxia inh = PubChem AID 1159583 | M. tuberculosis hypoxia-regulated fluorescent reporter, fluorescence | fluorescence inhibition, % (concentration not given with the values) | hit rate 0.1% among 300,000;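 active = 35 to 45% if threefold the growth effect, above 45% if 1.5-fold the growth effect; inactive = the rest, general growth blockers included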;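 also: wells of about 50 µL received 100 nL stock; 0% = vehicle wells and 100% = reference inhibitor wells; whole bacteria with a GFP reporter of the hypoxia response; strong numbers were not always called active; many hits fall short of the cut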
BJeLR viability = MLPCN primary cell-based screen for lethality selective to Ras in HRASV12 cells. BJeLR (HRASV12) viability, CellTiter-Glo ATP luminescence, 48 h; reference of the scale not given here. inhibition, % (concentration not given with the values). hit rate 0.17% among 300,000. AID 1554, 2009;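 active = replicate mean above 50%; inconclusive = above 50% but judged a plate artefact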;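 also: 50 nL library stock added to about 25 µL; numbers are from one replicate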
PrP 5UTR inh = inhibition of PrP 5' UTR reporter expression; cell-based PrP 5' UTR mRNA reporter, plate reader; inhibition, % (no concentration beside the values); hit rate 0.35% among 340,000;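 active = every replicate at 50% or more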;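 also: 0 = median of the neutral control wells; tested in H4 reporter cells; numbers are from one replicate; inactives centre near -14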
Autofluor counter = flagged as autofluorescent in microsphere protease counterscreen. compound autofluorescence counterscreen, microsphere flow cytometry; active compounds read high. fluorescence intensity (concentration not given with the values). hit rate 3.1% among 360,000. AID 624483;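 active = at least 3 SD above the mean of all compounds, about 16000 in these data; inconclusive = too few beads counted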;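 also: 100 nL of 1 mM stock went into each well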
Sa ugtP lethal = growth inhibition of ugtP-null S. aureus, primary screen, RN4220 ugtP deletion, OD600. AID 1259309, 2017. hit rate 0.54% among 330,000. growth inhibition, % (test concentration not listed). 16 h; some inactives read as strong as hits;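 active = z-score under -3 and OD600 up to 0.15 on both plates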;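 also: plate controls were untreated wells for no effect and antibiotic for full effect; wells of about 80 µL received 100 nL stock; the first replicate is given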
Mtb hypoxia inh growth = second read-out of Mtb hypoxia inh, no call of its own (marks repeat the call); growth inhibition, %; measured here: M. tuberculosis growth (absorbance);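 0% = vehicle and 100% = reference antibiotic; read after six days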
Starred values were filed as active, the others as inactive; ? = inconclusive; / = no result given.

No.	Compound	Sa RN4220 lethal	Mtb hypoxia inh	Mtb hypoxia inh growth	BJeLR viability	PrP 5UTR inh	Autofluor counter	Sa ugtP lethal
1	COc1cc(C(=O)NCC(=O)NN=C(C)c2cccs2)cc(OC)c1OC	-4.6	-10	2	/	/	/	3
2	Nc1ccc2nc3c(=O)n(C4CCCCC4)c(=O)[nH]c3nc2c1	4.0	-30	3	7	-68	4954	0
3	Clc1cccc(CN2CCSCC2)c1	6.5	0	-1	13	-110	3938	1
4	O=C(Nc1ccnn1C1CCN(CCCc2ccccc2)CC1)c1ccccc1Cl	1.3	15	-37	5	-26	/	-1
5	Cc1nn(CC(=O)Nc2ccc(C#N)cc2)c(C)c1[N+](=O)[O-]	1.1	6	14	7	-1	6042	10
6	CN1CCN(CC(=O)Nc2ccccc2C(F)(F)F)CC1	2.3	-3	3	0	-26	3477	7
7	CN1C(=O)/C(=C/c2ccc(C(=O)NC3CCCC3)cc2)Oc2ccccc21	/	/	/	-17	-23	4241	/
8	Cn1c(=O)[nH]c(=O)c2c1nc(NCCCO)n2CCCc1ccccc1	4.5	6	6	1	22	10437	5

No.	Compound	Sa RN4220 lethal	Mtb hypoxia inh	Mtb hypoxia inh growth	BJeLR viability	PrP 5UTR inh	Autofluor counter	Sa ugtP lethal
9	Cc1cc(O)cc2c1C(c1ccc(F)cc1)CC1(CC(C)(C)NC(=S)N1)O2 (stereo not drawn)	7.4	0	1	7	-59	4130	0
10	CC1(C)Cc2c(C#N)c(SCCO)nc(N3CCOCC3)c2CO1	1.9	5	-3	-17	-4	3523	0
11	Cc1ccc(/C=N/NC(=O)Cn2ccc(C(F)(F)F)n2)o1	/	/	/	-6	-22	2151	/
12	O=C1NC(=O)N(Cc2ccco2)C(=O)/C1=C\c1cccn1CCOc1ccccc1	4.0	-4	4	6	-18	5465	5
13	CC(C)(CO)NC(=O)CC1C(=O)NCCN1CC(c1ccccc1)c1ccccc1 (stereo not drawn)	1.7	4	4	3	-13	4431	-3
14	O=C(COc1ccccc1)Nc1ccc(F)cc1	3.0	7	3	11	-42	4496	2
15	Cc1cccc(CNc2ccc(S(=O)(=O)N3CCCCC3)cc2)c1	-0.1	0	-1	/	-5	?	-8
16	O=C(CSc1ccccc1)Nc1ccccc1N1CCOCC1	2.9	/	/	-6	10	3165	3

No.	Compound	Sa RN4220 lethal	Mtb hypoxia inh	Mtb hypoxia inh growth	BJeLR viability	PrP 5UTR inh	Autofluor counter	Sa ugtP lethal
17	CC(C)C1CC(=O)NC(SCC(=O)Nc2ccc(Br)cc2)=C1C#N (stereo not drawn)	3.7	/	/	8	-30	3877	-9
18	O=C(CN(c1ccc(F)cc1)S(=O)(=O)c1ccc2c(c1)OCCO2)Nc1cccnc1	4.4	/	/	-9	-20	2383	2
19	CC(C)C(=O)N1CCN(c2nc3ccc(Cl)cc3s2)CC1	5.3	11	-1	7	-75	5773	0
20	COc1cc(C=NNC(=O)c2sc(N)c(C#N)c2C)ccc1O	14	2	13	/	/	/	8
21	CCN(c1ccccc1)S(=O)(=O)c1ccc(Cl)c(NC(=O)CN2CCN(C)CC2)c1	0.9	-3	9	/	/	6439	0
22	O=C(Nc1ccc(NC(=O)C2CCCN2C(=O)OCc2ccccc2)cc1)c1ccco1 (stereo not drawn)	2.9	/	/	8	-28	3599	8
23	COc1ccc(-c2nc3ccccc3c(=O)n2CC(C)C)cc1	1.7	18	8	1	-13	3837	8
24	Cc1ccc[n+](C(C)C(=O)Nc2ccc(C)c(C)c2)c1 (stereo not drawn)	0.1	21	8	-11	-18	4553	8

In a second layout: results already given.
18	O=C(CN(c1ccc(F)cc1)S(=O)(=O)c1ccc2c(c1)OCCO2)Nc1cccnc1
19	CC(C)C(=O)N1CCN(c2nc3ccc(Cl)cc3s2)CC1
20	COc1cc(C=NNC(=O)c2sc(N)c(C#N)c2C)ccc1O
21	CCN(c1ccccc1)S(=O)(=O)c1ccc(Cl)c(NC(=O)CN2CCN(C)CC2)c1
22	O=C(Nc1ccc(NC(=O)C2CCCN2C(=O)OCc2ccccc2)cc1)c1ccco1 (stereo not drawn)
assay / entry	18	19	20	21	22
Sa RN4220 lethal	4.4	5.3	14	0.9	2.9
Mtb hypoxia inh	/	11	2	-3	/
Mtb hypoxia inh growth	/	-1	13	9	/
BJeLR viability	-9	7	/	/	8
PrP 5UTR inh	-20	-75	/	/	-28
Autofluor counter	2383	5773	/	6439	3599
Sa ugtP lethal	2	0	8	0	8

Further records
No.	Compound	Sa RN4220 lethal	Mtb hypoxia inh	Mtb hypoxia inh growth	BJeLR viability	PrP 5UTR inh	Autofluor counter	Sa ugtP lethal
25	O=C1Cc2cc(S(=O)(=O)Nc3cccc(F)c3)ccc2N1	2.0	4	-3	/	-13	3634	-1
26	Nc1cc(C(=O)OCC(=O)Nc2ccc(N3CCOCC3)cc2)ccc1Cl	1.8	-10	-7	/	-9	9034	1
27	COc1cccc2sc(N3CCN(C(=O)C4COc5ccccc5O4)CC3)nc12 (stereo not drawn)	4.5	-2	0	1	-12	5006	0
28	C=CCOC(=O)c1ccccc1C(=O)OCC1CO1 (stereo not drawn)	3.5	5	2	/	-10	4292	6
29	Cc1ccc(S(=O)(=O)N2CCN(C(=O)N3CCOCC3)C2C(C)C)cc1 (stereo not drawn)	-0.9	1	12	-5	-18	9043	2
30	Cc1ccc(NS(=O)(=O)c2ccc3c(c2)NC(=O)C(C)C(=O)N3)c(Cl)c1 (stereo not drawn)	10	0	1	15	-20	6818	11
31	COc1cc(NC(=O)C2CCN(S(=O)(=O)c3cnc[nH]3)CC2)cc(OC)c1OC	1.8	12	13	-8	-33	13105	8
32	O=C(O)C1=C[C@@H](c2ccc3c(c2)OCO3)C[C@@H](OCc2ccc(CO)cc2)O1	/	/	/	-4	-9	3948	/

Three structures already listed, arranged by molecular weight, high to low:
No.	Compound	Sa RN4220 lethal	Mtb hypoxia inh	Mtb hypoxia inh growth	BJeLR viability	PrP 5UTR inh	Autofluor counter	Sa ugtP lethal
31	COc1cc(NC(=O)C2CCN(S(=O)(=O)c3cnc[nH]3)CC2)cc(OC)c1OC	1.8	12	13	-8	-33	13105	8
30	Cc1ccc(NS(=O)(=O)c2ccc3c(c2)NC(=O)C(C)C(=O)N3)c(Cl)c1 (stereo not drawn)	10	0	1	15	-20	6818	11
28	C=CCOC(=O)c1ccccc1C(=O)OCC1CO1 (stereo not drawn)	3.5	5	2	/	-10	4292	6

(cont.)
No.	Compound	Sa RN4220 lethal	Mtb hypoxia inh	Mtb hypoxia inh growth	BJeLR viability	PrP 5UTR inh	Autofluor counter	Sa ugtP lethal
33	CN(CCO)c1ccc(/C=N/Nc2nncc3ccccc23)cc1	/	/	/	40	80*	4464	/
34	Cc1ccc(CNC(=O)c2cc(=O)c3ccccc3o2)cc1	3.4	-4	9	-10	-25	3818	3
35	CC(C)(C)CC(=O)N1CCN(Cc2ccc3c(c2)OCO3)CC1	6.3	17	8	2	-19	3503	3
36	CCOc1ccccc1C(=O)N(Cc1ccco1)C1CCS(=O)(=O)C1 (stereo not drawn)	-0.1	/	/	/	-8	3990	2
37	CC1(C)CC2CC(C)(CN2CC(O)c2ccccc2)C1 (stereo not drawn)	-0.3	1	-1	3	-9	3080	-4
38	Cc1cccc(N2CC(C(=O)Nc3ccc(S(=O)(=O)NCC4CCCO4)cc3)CC2=O)c1C (stereo not drawn)	-1.5	-4	-14	-6	-19	5126	10
39	Fc1ccc(Sc2cc(Cl)c(-c3ccccc3)nn2)cc1	23	/	/	4	-26	4964	-9
40	Fc1ccccc1COc1ccc(C=Nn2cnnc2)cc1	4.5	6	14	/	/	/	7

No.	Compound	Sa RN4220 lethal	Mtb hypoxia inh	Mtb hypoxia inh growth	BJeLR viability	PrP 5UTR inh	Autofluor counter	Sa ugtP lethal
41	O=C(NCCOc1ccccc1Cl)c1ccc2c(c1)S(=O)(=O)c1cc(Cl)ccc1C2=O	11	2	4	/	-86	2763	13
42	O=C1[C@@H]2Cc3c([nH]c4ccccc34)C(c3ccc([N+](=O)[O-])cc3)N2C(=O)CN1C1CC1 (stereo partly drawn)	0.5	15	10	-11	-11	3784	1
43	CCN(CC)S(=O)(=O)c1ccc(C)c(NCC(=O)Nc2ccc(C#N)c(Cl)c2)c1	8.8	-2	-8	2	10	2148	-8
44	N#CCc1c(C#N)c(N)nc(N2CCN(S(=O)(=O)c3ccccc3F)CC2)c1C#N	0.4	13	13	-7	-9	7180	2
45	CCOC(=O)c1c(NC(=O)NN=Cc2ccccc2OCC)sc(C(C)=O)c1C	4.3	-4	2	/	/	/	-4
46	COCCN(CCOC)S(=O)(=O)c1ccc(C(=O)NC2CCN(Cc3ccccc3)CC2)cc1	-14	12	6	4	1	3427	-9
47	Cc1cccc(NC2=C(NC(=O)c3ccccc3)C(=O)c3ccccc3C2=O)c1	/	/	/	-3	-45	2215	/
48	CCC(=O)Nc1cccc(NC(=O)c2ccccc2Cl)c1	4.6	12	1	-11	-15	4595	2

No.	Compound	Sa RN4220 lethal	Mtb hypoxia inh	Mtb hypoxia inh growth	BJeLR viability	PrP 5UTR inh	Autofluor counter	Sa ugtP lethal
49	CCOC(=O)COn1c(=O)c(-c2cc3ccccc3o2)[n+]([O-])c2ccccc21	7.1	0	-1	5	-78	8175	5
50	O=C1C2CCCN2C(c2ccc(F)c(F)c2)N1c1cccc(Cl)c1 (stereo not drawn)	1.4	/	/	-9	-15	5390	-1
51	CC(C)C(NC(=O)OCc1ccccc1)C(=O)NCc1ccc(C(=O)O)cc1 (stereo not drawn)	-0.4	5	14	4	-8	9022	6
52	CNC(=O)CC1C(=O)N(c2ccc(Cl)cc2)C(=S)N1NC(=O)c1cccc(F)c1 (stereo not drawn)	0.7	12	-1	-9	-22	3782	3
53	Cc1nc(C(=O)NN=Cc2[nH]ncc2Br)cs1	1.0	8	7	/	/	/	5
54	CC(C)c1ccc(N(CC(=O)N2CCN(Cc3ccccc3)CC2)S(C)(=O)=O)cc1	/	/	/	0	-8	3974	/
55	Cc1ccc(OCC(=O)NNC(=O)CSC(=S)N2CCCC2)cc1	6.1	-2	-1	/	-19	?	7
56	Cc1ccc(OCc2nnc(SCC(=O)c3cccc([N+](=O)[O-])c3)n2C)cc1	-5.5	5	1	8	-3	10195	2

No.	Compound	Sa RN4220 lethal	Mtb hypoxia inh	Mtb hypoxia inh growth	BJeLR viability	PrP 5UTR inh	Autofluor counter	Sa ugtP lethal
57	CNC(=O)N(O)C1N(/N=C/c2ccc(SC)cc2)C(=S)SC1(C)C (stereo not drawn)	/	/	/	5	-21	3288	/
58	CCOc1ccc2oc(C(=O)Nc3ccc(N4CCOCC4)cc3)c(C)c2c1	-1.4	/	/	0	-25	2825	2
59	COc1ccc(-c2nc(CS(=O)CC(=O)NCCN3CCCCCC3)c(C)o2)cc1OC (stereo not drawn)	1.5	-5	-8	2	-8	4933	6
60	CC/C(=N\NC(=O)c1nnn(-c2nonc2N)c1-c1cccc(OC)c1)c1ccc(C)cc1	/	/	/	2	-14	6555	/
61	CCN1CCN(CCCNC(=O)C2CCCN(c3nc4c(C)cc(C)cc4s3)C2)CC1 (stereo not drawn)	-14	7	15	16	-9	5869	-5
62	O=C(c1cccc2ccccc12)N1CCC(N2CCN(c3ccccc3)CC2)CC1	4.9	5	4	-2	-13	/	6
63	COc1cccc(CN(C)Cc2cc(=O)oc3c(C)c(C)ccc23)c1	3.1	-9	4	12	-6	3901	12
64	Cc1ccc([N+](=O)[O-])cc1NC(=O)CSc1n[nH]c(-c2cccnc2)n1	-2.1	-3	-5	-10	-17	3686	8

No.	Compound	Sa RN4220 lethal	Mtb hypoxia inh	Mtb hypoxia inh growth	BJeLR viability	PrP 5UTR inh	Autofluor counter	Sa ugtP lethal
65	CCC(=O)Nc1nnc(S(=O)(=O)N(CC)c2ccc(Cl)cc2)s1	1.9	11	-1	-1	-10	4343	-2
66	COc1cccc(C=NNC(=O)CCCc2ccc(OC)c(C)c2)c1	4.9	17	7	/	/	/	9
67	COC(=O)CNC(=S)NC(=O)c1ccc(C(C)(C)C)cc1	0.2	6	2	5	-8	4512	3
68	Cc1nc(SC2CC(=O)N(c3ccccc3)C2=O)nc2c1CCCC2 (stereo not drawn)	8.6	3	1	6	/	11064	12
